Screening results as filed in PubChem BioAssay.
Bfl-1 displacement = Bfl-1 inhibitors, primary screen, biochemical, fluorescence polarization, FITC-Bid, mouse (AID 432); Bcl-2-related protein A1 (Mus musculus); FITC-Bid BH3 peptide fluorescence polarization displacement; higher % means a stronger effect; displacement, % at 20 µM, or IC50 in µM where a hit was titrated; 0.02% of 64,000 active; in the data active = a potency from the dose series; inactive = the rest, 99 in 100 with displacement below about 15%; also: strong numbers were not always called active
LYP phosphatase = LYP phosphatase inhibitors, primary screen, biochemical, DiFMUP fluorescence, recombinant catalytic domain, 10 µM (AID 606) | Tyrosine-protein phosphatase non-receptor type 22 (Homo sapiens) | recombinant LYP catalytic domain, DiFMUP fluorescence; higher % means a stronger effect | inhibition, % at 10 µM; hits with a dose series show IC50 in µM | 52,000 tested, under 10 active;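 active = IC50 under 40 µM in the dose-response test; inactive = IC50 of 40 µM or more, or never dose-tested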
HPDE-C7 viability = cytotoxicity in HPDE-C7 cells, cell-based, fluorescence, HTS (AID 430) | HPDE-C7 pancreatic duct cells viability, fluorescence; higher % means a stronger effect | cytotoxicity, % at 10 µM, or EC50 in µM where a hit was titrated | 1.8% of 63,000 active;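 also: cells exposed to compound for 48 hours before viability readout; 0% = vehicle and 100% = reference cytotoxic drug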
Alkaline phosphatase = human TNAP enzyme inhibitors, biochemical, luminescent (AID 518) | Alkaline phosphatase, tissue-nonspecific isozyme (Homo sapiens) | purified TNAP enzyme, luminescent substrate readout; higher % means a stronger effect | one-dose inhibition, % at 20 µM; IC50 in µM for titrated hits | 0.09% of 64,000 active; in the data active = a potency from the dose series; inactive = the rest, 99 in 100 with inhibition below about 22%;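 also: plate controls were vehicle for no effect and reference inhibitor for full effect; many of its hits are not listed in these tables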
HT1080 viability = cytotoxicity in HT1080 fibrosarcoma cells, cell-based, fluorescence readout (AID 620) | HT1080 viability, fluorescence; higher % means a stronger effect | cytotoxicity, % at 10 µM; hits with a dose series show EC50 in µM | 0.42% of 87,000 active;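 also: cells exposed to compound overnight then 4 h with Alamar Blue; 0% = vehicle DMSO and 100% = killing control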
HPDE-C7K KRASV12 = cytotoxicity in KRAS-transformed pancreatic duct cells, primary screen, cell-based, fluorescence, HTS (AID 431); HPDE-C7K KRASV12 cells, Alamar Blue viability, 48 h; higher % means a stronger effect; cytotoxicity, % at 10 µM, or EC50 in µM where a hit was titrated; 1.7% of 63,000 active;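 active = compounds whose percent cytotoxicity in the single-dose primary screen, scaled between solvent and toxic-drug controls, exceeds 50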;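 also: 0% = DMSO solvent wells and 100% = doxorubicin-treated wells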
An asterisk follows results filed as active. Rule as the data show it, unless noted: active = cytotoxicity above about 50%; inactive = the rest. Not all compounds are listed; rates above refer to the full screens.

How did CCOC(=O)c1sc(=S)n2c1[nH]c(=O)c1ccc(C(=O)OC)cc12 do in these assays?
Bfl-1 displacement: 0.3%; LYP phosphatase: -6.3%; HPDE-C7 viability: 2.5%; Alkaline phosphatase: 18.1%; HT1080 viability: -0.7%; HPDE-C7K KRASV12: -5.6%

What do the screens show for `CCc1nnc(NC(=O)c2ccc(S(=O)(=O)N3CCOCC3)cc2)s1`?
Bfl-1 displacement: 1.3%; LYP phosphatase: -13.0%; HPDE-C7 viability: 0.6%; Alkaline phosphatase: 9.6%; HT1080 viability: -0.1%; HPDE-C7K KRASV12: -0.1%

What do the screens show for `CCCC(c1nnnn1CCc1ccccc1)N1CCN(C(=O)c2ccco2)CC1` (centres undefined)?
Bfl-1 displacement: 2.3%; HPDE-C7 viability: 7.0%; Alkaline phosphatase: 14.4%; HT1080 viability: 2.7%; HPDE-C7K KRASV12: -13.1%

What do the screens show for `COc1ccc(-c2nc3cc(NC(=O)c4ccc5c(c4)OCO5)ccc3o2)cc1`?
Bfl-1 displacement: 21.5%; LYP phosphatase: 10.1%; HPDE-C7 viability: 1.2%; Alkaline phosphatase: 7.3%; HT1080 viability: 5.6%; HPDE-C7K KRASV12: -6.9%

Results for O=S(=O)(/C=C/c1ccccc1)Nc1ccc2c(c1)OCO2 ?
Bfl-1 displacement: -2.5%; LYP phosphatase: 3.9%; HPDE-C7 viability: 16.3%; Alkaline phosphatase: 9.6%; HT1080 viability: 34.1%; HPDE-C7K KRASV12: 11.4%

How did CC1Cc2ccccc2N1C(=O)CSc1nc2c(c(=O)n(C)c(=O)n2C)n1Cc1ccccc1 (centres undefined) do in these assays?
Bfl-1 displacement: -8.8%; HPDE-C7 viability: -20.1%; Alkaline phosphatase: 11.5%; HT1080 viability: -5.3%; HPDE-C7K KRASV12: -41.4%

Results for Cc1ccc(-c2noc(CSc3nnnn3C3CCCCC3)n2)cc1 ?
Bfl-1 displacement: -2.9%; LYP phosphatase: -3.0%; HPDE-C7 viability: -10.0%; Alkaline phosphatase: 2.6%; HT1080 viability: 8.1%; HPDE-C7K KRASV12: -16.7%

What do the screens show for `O=C(c1ccccc1)N1CCN(CC#Cc2ccccc2)CC1`?
Bfl-1 displacement: -1.4%; LYP phosphatase: 5.1%; HPDE-C7 viability: -9.0%; Alkaline phosphatase: 9.4%; HT1080 viability: 29.0%; HPDE-C7K KRASV12: -8.0%

Results for CCC(=O)N1c2ccccc2C(N(C(C)=O)c2ccccc2)CC1C (centres undefined) ?
HT1080 viability: 1.4%

How did CC(C(N)=O)N1C(=O)C2C3C=CC(C3)C2C1=O (centres undefined) do in these assays?
Bfl-1 displacement: 5.4%; LYP phosphatase: -5.9%; HPDE-C7 viability: -12.0%; Alkaline phosphatase: 15.6%; HT1080 viability: -11.7%; HPDE-C7K KRASV12: -0.4%

What do the screens show for `COc1cccc(C2CC(C(F)(F)F)n3ncc(C(=O)NCc4ccco4)c3N2)c1` (centres undefined)?
Bfl-1 displacement: 1.2%; HPDE-C7 viability: 5.4%; Alkaline phosphatase: 7.5%; HT1080 viability: 7.0%; HPDE-C7K KRASV12: 9.5%

How did CCCOc1ccc(S(=O)(=O)NCCCN2CCOCC2)c2ccccc12 do in these assays?
Bfl-1 displacement: 2.2%; LYP phosphatase: 4.6%; HPDE-C7 viability: 10.3%; Alkaline phosphatase: 14.4%; HT1080 viability: -4.6%; HPDE-C7K KRASV12: 17.1%

Next section; it opens with the three that closed the last part.
How did CC(C(N)=O)N1C(=O)C2C3C=CC(C3)C2C1=O (centres undefined) do in these assays?
Bfl-1 displacement: 5.4%; LYP phosphatase: -5.9%; HPDE-C7 viability: -12.0%; Alkaline phosphatase: 15.6%; HT1080 viability: -11.7%; HPDE-C7K KRASV12: -0.4%

What do the screens show for `COc1cccc(C2CC(C(F)(F)F)n3ncc(C(=O)NCc4ccco4)c3N2)c1` (centres undefined)?
Bfl-1 displacement: 1.2%; HPDE-C7 viability: 5.4%; Alkaline phosphatase: 7.5%; HT1080 viability: 7.0%; HPDE-C7K KRASV12: 9.5%

How did CCCOc1ccc(S(=O)(=O)NCCCN2CCOCC2)c2ccccc12 do in these assays?
Bfl-1 displacement: 2.2%; LYP phosphatase: 4.6%; HPDE-C7 viability: 10.3%; Alkaline phosphatase: 14.4%; HT1080 viability: -4.6%; HPDE-C7K KRASV12: 17.1%

What do the screens show for `Cc1ccc(-c2cc(C(=O)NCc3cccs3)no2)cc1`?
Bfl-1 displacement: -2.7%; LYP phosphatase: -14.1%; HPDE-C7 viability: -2.6%; Alkaline phosphatase: 7.1%; HT1080 viability: 2.1%; HPDE-C7K KRASV12: 0.8%

What do the screens show for `COc1ccc(C(=O)NCc2cn3ccccc3n2)cc1`?
Bfl-1 displacement: 2.4%; HPDE-C7 viability: 19.3%; Alkaline phosphatase: 11.5%; HT1080 viability: 7.2%; HPDE-C7K KRASV12: 19.3%

What do the screens show for `CCCOC1(NC(=O)c2ccccc2)C(C)=CC(=O)C=C1C`?
Bfl-1 displacement: -2.5%; HPDE-C7 viability: -11.7%; Alkaline phosphatase: 7.1%; HT1080 viability: -7.8%; HPDE-C7K KRASV12: -4.2%

Results for CN1CCc2c(sc3c2c(=O)n(-c2ccccc2)c2nnc(SCc4ccc(F)cc4)n32)C1 ?
Bfl-1 displacement: 1.7%; LYP phosphatase: 8.9%; HPDE-C7 viability: 7.3%; Alkaline phosphatase: 14.2%; HT1080 viability: -4.6%; HPDE-C7K KRASV12: 8.3%

How did CCOC(=O)N1CCN(C(=O)c2ccc3c(=O)n(Cc4ccccc4)c(=S)[nH]c3c2)CC1 do in these assays?
Bfl-1 displacement: -7.7%; LYP phosphatase: 5.4%; HPDE-C7 viability: -18.6%; Alkaline phosphatase: -11.1%; HT1080 viability: 0.7%; HPDE-C7K KRASV12: -7.4%

Results for COc1cc2c(cc1O)C(SC)=NC(C)(C)C2 ?
Bfl-1 displacement: 10.8%; HPDE-C7 viability: 14.1µM*; Alkaline phosphatase: -4.6%; HT1080 viability: 34.4%; HPDE-C7K KRASV12: 13.6µM*

How did CCc1ccc(N2CC(C(=O)NCc3ccc4c(c3)OCO4)CC2=O)cc1 (centres undefined) do in these assays?
Bfl-1 displacement: -4.2%; LYP phosphatase: 12.4%; HPDE-C7 viability: 5.4%; Alkaline phosphatase: 19.2%; HT1080 viability: 3.9%; HPDE-C7K KRASV12: 3.3%

How did O=C(Cc1ccc(Cl)cc1)Nc1cccc(-c2nnc(-c3ccco3)o2)c1 do in these assays?
Bfl-1 displacement: -6.2%; LYP phosphatase: 12.9%; HPDE-C7 viability: -4.9%; Alkaline phosphatase: 9.3%; HT1080 viability: -4.6%; HPDE-C7K KRASV12: 3.6%

What do the screens show for `O=C(Nc1ccccc1-c1ccccc1)c1cnccn1`?
Bfl-1 displacement: -1.5%; LYP phosphatase: 8.3%; HPDE-C7 viability: 3.5%; Alkaline phosphatase: 8.2%; HT1080 viability: -0.1%; HPDE-C7K KRASV12: -2.2%

What do the screens show for `COc1cc2nc(C3CCC3)n(NC(=O)C3CCCC(OC)C3)c(=O)c2cc1OC` (centres undefined)?
Bfl-1 displacement: 5.1%; LYP phosphatase: 10.8%; HPDE-C7 viability: 2.1%; Alkaline phosphatase: 9.3%; HT1080 viability: -9.3%; HPDE-C7K KRASV12: 12.8%

What do the screens show for `CCOc1ccc(N(CC(=O)NCc2ccc(F)cc2)S(=O)(=O)c2c(C)noc2C)cc1`?
Bfl-1 displacement: 1.4%; LYP phosphatase: 11.1%; HPDE-C7 viability: 5.9%; Alkaline phosphatase: 3.8%; HT1080 viability: -11.2%; HPDE-C7K KRASV12: 0.3%

How did Nc1nonc1C(=O)NCCNC(=O)c1ccccc1F do in these assays?
Bfl-1 displacement: 0.4%; LYP phosphatase: 12.9%; HPDE-C7 viability: -4.8%; Alkaline phosphatase: 12.4%; HT1080 viability: -7.1%; HPDE-C7K KRASV12: 2.3%

What do the screens show for `CCC(C)(C)n1nnnc1CN1CCN(c2nc3cc(OC)ccc3cc2C#N)CC1`?
Bfl-1 displacement: 2.2%; LYP phosphatase: 5.0%; HPDE-C7 viability: -2.6%; Alkaline phosphatase: 4.9%; HT1080 viability: -3.4%; HPDE-C7K KRASV12: 13.0%

Results for CC(NC(=O)C1CCC1)c1ccc(Cl)cc1 (centres undefined) ?
Bfl-1 displacement: -1.5%; LYP phosphatase: 2.6%; HPDE-C7 viability: -23.4%; Alkaline phosphatase: 3.8%; HT1080 viability: 1.6%; HPDE-C7K KRASV12: -25.2%

What do the screens show for `Cc1ccc2c(c1)nnn2C1CCN(S(=O)(=O)c2ccc(C(=O)N(C)C3CCCCC3)cc2)CC1`?
Bfl-1 displacement: -3.4%; LYP phosphatase: 10.4%; HPDE-C7 viability: -11.6%; Alkaline phosphatase: 1.6%; HT1080 viability: 24.5%; HPDE-C7K KRASV12: -11.9%

What do the screens show for `CCOC(=O)C(NC(=O)CC)(Nc1sc2c(c1C(=O)OC)CCN(C)C2)C(F)(F)F` (centres undefined)?
Bfl-1 displacement: -6.8%; LYP phosphatase: 4.6%; HPDE-C7 viability: -5.0%; Alkaline phosphatase: 6.5%; HT1080 viability: 1.9%; HPDE-C7K KRASV12: -3.7%

What do the screens show for `O=C(Nc1cccc2c1CCCC2)C1CCN(c2nnnn2-c2ccccc2)CC1`?
Bfl-1 displacement: -0.1%; LYP phosphatase: 6.4%; HPDE-C7 viability: -4.6%; Alkaline phosphatase: 8.5%; HT1080 viability: -2.7%; HPDE-C7K KRASV12: 0.8%

How did NCCc1nnc(SCc2ccc(F)cc2)o1 do in these assays?
Bfl-1 displacement: -0.5%; LYP phosphatase: 7.6%; HPDE-C7 viability: 3.5%; Alkaline phosphatase: 11.9%; HT1080 viability: -6.1%; HPDE-C7K KRASV12: 4.1%

How did O=C(Nc1ccc2c(c1)OCO2)C1CCN(S(=O)(=O)c2cccs2)CC1 do in these assays?
Bfl-1 displacement: -2.8%; LYP phosphatase: -11.5%; HPDE-C7 viability: 10.0%; Alkaline phosphatase: 18.2%; HPDE-C7K KRASV12: 2.6%

Results for CN1CC2(Cc3c1ccc1ccccc31)C(=O)OC(C)(C)OC2=O ?
Bfl-1 displacement: 2.3%; LYP phosphatase: 14.0%; HPDE-C7 viability: 80.9%*; Alkaline phosphatase: 9.2%; HPDE-C7K KRASV12: 64.4%*

Results for CC(C)=CC(=O)Nc1ccc(Br)cc1 ?
Bfl-1 displacement: -5.7%; LYP phosphatase: 7.5%; HPDE-C7 viability: 10.4%; Alkaline phosphatase: 18.9%; HT1080 viability: 14.6%; HPDE-C7K KRASV12: 4.4%

How did Oc1c(C(c2ccccc2)N2CCc3ccccc3C2)sc2ncnn12 (centres undefined) do in these assays?
Bfl-1 displacement: 2.8%; LYP phosphatase: 3.3%; HPDE-C7 viability: -14.9%; Alkaline phosphatase: 15.3%; HT1080 viability: -4.1%; HPDE-C7K KRASV12: -15.3%

Results for CCOC(=O)c1ccc(NS(=O)(=O)CC)cc1 ?
Bfl-1 displacement: -4.3%; LYP phosphatase: 10.6%; HPDE-C7 viability: 10.2%; Alkaline phosphatase: 7.9%; HT1080 viability: -3.0%; HPDE-C7K KRASV12: 4.5%

What do the screens show for `CS(=O)(=O)N(CC(=O)Nc1cccnc1)c1ccc2c(c1)OCCO2`?
Bfl-1 displacement: -0.5%; LYP phosphatase: 6.4%; HPDE-C7 viability: -2.9%; Alkaline phosphatase: 9.6%; HT1080 viability: 3.0%; HPDE-C7K KRASV12: -6.6%

How did O=C(Nc1nncs1)C1COc2ccccc2O1 (centres undefined) do in these assays?
Bfl-1 displacement: -5.0%; LYP phosphatase: 18.4%; HPDE-C7 viability: -18.9%; Alkaline phosphatase: 7.8%; HT1080 viability: -0.5%; HPDE-C7K KRASV12: -8.3%

Results for CC1(C)CC(=O)C(CC(=O)NC(=O)NCc2ccccc2)=C(O)C1 ?
Bfl-1 displacement: -1.3%; LYP phosphatase: -0.1%; HPDE-C7 viability: 3.5%; Alkaline phosphatase: 12.3%; HT1080 viability: -1.5%; HPDE-C7K KRASV12: -14.6%

Results for Cc1nnc2sc(-c3csc4c3CCCC4)nn12 ?
Bfl-1 displacement: -2.2%; LYP phosphatase: 4.7%; HPDE-C7 viability: -4.3%; Alkaline phosphatase: 9.6%; HT1080 viability: -3.2%; HPDE-C7K KRASV12: 3.5%
